# StopGo reporter: lowers the luciferase signal of an FMDV 2A StopGo reporter; 410,000 compounds, 1.2% hits; Potency, µM (titrated, usually from 57.9 µM), for the others: top-dose signal change, negative = less light; human cells with a luciferase reporter of 2A StopGo recoding; control for the full effect not named in the record; AID 1159524; active = well fitted falling curve with a large enough effect; inconclusive = small, poorly fitted or top-dose-only effect; inactive = no such curve, though single readings can be large or run the other way; tested in HEK293T cells; also: % is scaled to controls: 0 for no effect and ±100 for the full control effect; nearly all actives have a fitted effect of over 45% in size; luciferase light after 4 h
# Marburg entry inh: blocks Marburg virus binding to or entry into cells; AID 540276; Potency, µM (series often up to 37.8 µM), inactives show top-dose activity change, negative = inhibition, most hits filed as inhibitors; Marburg virus pseudotyped entry inhibition, cell reporter; control for the full effect not named in the record; about a third of the inactives were read at about 46 µM; 300,000 compounds, 1.8% hits; active = well fitted inhibition curve with a large enough effect; inconclusive = small, poorly fitted or top-dose-only effect, or effect the other way; inactive = flat fitted curve, though single readings scatter; tested in HEK293 cells; about a fifth of its hits are not listed in these tables; also: % is scaled to controls: 0 for no effect and ±100 for the full control effect; luciferase read-out
# NS1 function inh: blocks influenza NS1 protein function; Potency, µM (highest dose often 46.1 µM), inactives show at the top dose activity, positive = more growth; S. cerevisiae slowed by influenza A NS1, growth recovery by OD600; 270,000 compounds, 0.4% hits; active means well fitted rising curve with a large enough effect; inconclusive means small, poorly fitted or top-dose-only effect; inactive means no such curve, though single readings can be large or run the other way; also: nearly all actives have a fitted effect of over 50% in size
#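 Recovery from NS1-induced slow growth read by OD600 in budding yeast switched to galactose assay medium (pH 6.0, -URA) at 1:100 dilution. Compound 23 nl per well; the matching strain lacking NS1 serves as control.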
# Cruzain noTriton: inhibitors of Trypanosoma cruzi cruzain without detergent. P25779. purified cruzain, Z-FR-AMC fluorescence, no detergent. Potency, µM, without a hit: max response, negative = inhibition, hits mostly inhibitors. 200,000 compounds, 2.3% hits. AID 1476;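 also: plate controls were enzyme without inhibitor for no effect and buffer without enzyme for full effect; nearly all actives have a fitted effect of over 40% in size; top concentration of the series not given in the record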
# Target sequence (P25779 123-467 limits assumed): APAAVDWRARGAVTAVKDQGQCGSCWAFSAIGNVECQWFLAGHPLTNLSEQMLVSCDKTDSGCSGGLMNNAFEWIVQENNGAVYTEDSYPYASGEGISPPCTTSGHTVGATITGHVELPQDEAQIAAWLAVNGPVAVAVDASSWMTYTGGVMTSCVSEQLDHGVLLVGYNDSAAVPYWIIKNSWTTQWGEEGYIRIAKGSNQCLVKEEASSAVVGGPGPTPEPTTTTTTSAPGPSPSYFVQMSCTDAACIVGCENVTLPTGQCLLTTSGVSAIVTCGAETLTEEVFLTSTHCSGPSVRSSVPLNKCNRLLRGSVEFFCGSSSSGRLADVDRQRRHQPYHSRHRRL
#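 Detergent-free condition (0.00005% Triton X-100) in acetate buffer pH 5.5 with DTT. 1.5 nM enzyme and compound were pre-mixed 15 min, then 2 uM Z-FR-AMC substrate added; reaction progress from fluorescence change between first and third reads (60 s).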
# LASV entry inh: inhibitors of Lassa virus binding or cell entry; Lassa virus pseudotype entry inhibition, cell reporter; control for the full effect not named in the record; Potency, µM (highest dose often 37.9 µM), for inactives: top-dose activity change, negative = inhibition, actives largely listed as inhibitors; 300,000 compounds, 1.2% hits; active means well fitted inhibition curve with a large enough effect; inconclusive means small, poorly fitted or top-dose-only effect, or effect the other way; inactive means flat fitted curve, though single readings scatter; tested in HEK293 cells; also: % is scaled to controls: 0 for no effect and ±100 for the full control effect; nearly all actives have a fitted effect of over 50% in size; luciferase read-out
# SARS PLpro yeast: blocks SARS-CoV papain-like protease in a yeast assay. S. cerevisiae expressing SARS-CoV PLpro, growth rescue; control for the full effect not named in the record. Potency, µM (titrated, usually from 32.9 µM), inactives show at the top dose activity, positive = growth rescue. 330,000 compounds, 0.19% hits. AID 485353; active means well fitted rising curve with a large enough effect; inconclusive means small, poorly fitted or top-dose-only effect; inactive means no such curve, though single readings can be large or run the other way; also: 0% is about no effect; nearly all actives have a fitted effect of over 55% in size; growth read by luminescence after 48 h
# RE007 growth inh: less growth of the S. pombe RE007 Vpr strain | Potency, µM (doses to about 92.2 µM), for inactives: at the highest dose activity change, negative = less growth | S. pombe RE007 Vpr strain, BacTiter-Glo ATP luminescence, 24 h; control for the full effect not named in the record | 360,000 compounds, 0.21% hits; active = well fitted falling curve with a large enough effect; inconclusive = small, poorly fitted or top-dose-only effect; inactive = no such curve, though single readings can be large or run the other way;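 also: % is scaled to controls: 0 for no effect and ±100 for the full control effect; nearly all actives have a fitted effect of over 50% in size; the assay follows cell death caused by Vpr and the record does not say whether a fall means rescue or toxicity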
#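 Fission yeast RE007 carrying one integrated HIV-1 vpr copy, seeded at OD 0.01 in PMG+AL medium with 23 nL pinned compound. Grown 24 h at 30 degrees; viability read by BacTiter-Glo luminescence after 5 min.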
# Cruzain Triton: blocks cruzain activity in presence of Triton detergent | 200,000 compounds, 0.43% hits | AID 1478 | purified cruzain, Z-FR-AMC fluorescence, 0.01% Triton | P25779 | Potency, µM, without a hit: max response, negative = inhibition, usual class: inhibitors;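 also: plate controls were neutral wells for no effect and buffer without enzyme for full effect; nearly all actives have a fitted effect of over 40% in size; top concentration of the series not given in the record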
#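 Steps: dispense cruzain (1.5 nM final) in acetate buffer pH 5.5 with DTT and 0.01% Triton X-100; pin-transfer compounds; incubate 15 min RT; add Z-FR-AMC (2 uM final); read fluorescence every 30 s, using the 60 s intensity change.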
# An asterisk follows results filed as active; u = inconclusive; x = not tested or not shown; & = joins results of further samples; [ ] = another dose, or the depositor's remark. Unless noted, calls follow the shape of the dose curve; as a rule, active = well fitted curve in the direction sought with a large enough effect; inconclusive = small, poorly fitted or top-dose-only effect, or another doubt; inactive = no such curve, though single readings can be large; an effect the other way counts as inactive or inconclusive. Potency is read from the fitted curve at half-maximal effect.
SMILES,StopGo reporter,Marburg entry inh,NS1 function inh,Cruzain noTriton,LASV entry inh,SARS PLpro yeast,RE007 growth inh,Cruzain Triton
CCc1n[nH]c2c1C(=O)CC(C)(C)C2,1%,41%,-6%,-11%,-1%,-2%,7%,4.1%
CCc1ccc(/C=C2\SC(N3CCOCC3)=NC2=O)cc1,4%,12%[46.1 µM],x,x,u,-8%,2%,x
Cc1ccc(S(=O)(=O)N(CC(=O)NN=C2CCN(C)CC2)c2ccc(F)cc2)cc1,-7%,-5%[46.1 µM],x,x,-1%[46.1 µM],-1%,19%,x
Cc1ccc(S(=O)(=O)CC(=O)Nc2nnc(C(C)C)s2)cc1,-9%,-4%[46.1 µM],3%,x,9%,0%,8%,x
COc1cc(C)cc2c1OC(c1ccccc1)CC2=O (stereo not drawn),-5%,1%[46.1 µM],x,x,4%[46.1 µM],x,-14%,x
CCOC(=O)C1(Cc2ccccc2)CCN(Cc2nccn2CC)CC1,-18%,u,-5%,x,-9%,0%,-9%,x
Cc1ccc(C(=O)NCC(=O)N2CCCC(C(F)(F)F)C2)s1 (stereo not drawn),30%[activator],23%,x,x,7%,-6%,-5%,x
COc1ccc2c(c1)c1nc3ccccc3nc1n2CCCN1C(=O)c2ccccc2C1=O,u,7%,3%,13%,8%,-11%,-4%,-2.6%
COc1ccc(C2NN=C(c3ccc(C)cc3)S2)cc1OC (stereo not drawn),31%[activator],6%[46.1 µM],x,x,x,-1%,4%,x
COc1cccc(Oc2nc3c(c(=O)n(Cc4ccccc4F)c(=O)n3C)n2C)c1,-10%,14%[46.1 µM],x,-8%,26%[46.1 µM],x,x,-0.1%
Cc1nc2ccccc2n1CC(=O)NC1CCCC1,-9%,-8%[46.1 µM],-6%,x,-2%,-1%,0%,x
CN(C)S(=O)(=O)Oc1ccsc1C(=O)Nc1ccc(Br)cc1,u,u,x,x,u,-21%,-3%,x
CC(C)NC(=O)CSc1nccc(-c2cccs2)n1,10%,x,-9%,x,x,-1%,32%,x
CCc1ccc(NC(=O)C2CCN(S(C)(=O)=O)CC2)cc1,x,-3%,-15%,6%,13%,3%,-8%,0.3%
O=C(NCC(=O)N(c1cccnc1)C(C(=O)NC1CCCC1)c1ccco1)c1cccs1 (stereo not drawn),-6%,1%,-3%,0%,9%,15%,-10%,5.6%
COc1cc(-c2nnc(Sc3ccc(C(F)(F)F)cc3[N+](=O)[O-])o2)cc(OC)c1OC,4%,u,9%,u,-2%,3%,18%,-3.6%
O=C(Nc1c(C(=O)N2CCCCC2)cnn1-c1ccccc1)c1ccccc1F,-17%,6%[46.1 µM],-1%,x,0%[46.1 µM],1%,-18%,x
CC(NC(=O)C(=O)N1CCCCC1)C(c1cccs1)N1CCN(Cc2ccccc2)CC1 (stereo not drawn),-3%,x,1%,x,x,-3%,-3%,x
O=[N+]([O-])c1ccc(N2CCN(S(=O)(=O)c3ccc(Cl)cc3)CC2)cc1NCC1CCCO1 (stereo not drawn),25%,-8%,15%,u,-25%[14.3 µM],3%,4%,3.0%
CN(C)c1ccc(CNC(=O)C2CCN(S(=O)(=O)c3ccc4c(c3)oc(=O)n4C)CC2)cc1,u,7%[46.1 µM],1%,9%,-11%[46.1 µM],-3%,12%,-0.6%
O=C(O)CCc1ccc(-c2cccs2)n1CC(=O)Nc1ccccc1C(F)(F)F,-4%&-11%,0%&10%[46.1 µM],x,11%,-9%,-1%,-13%,-5.4%
COc1ccc(OC)c(Nc2nc(N)c([N+](=O)[O-])c(NCc3ccccc3)n2)c1,-5%,-1%[46.1 µM],-1%,x,0%,2%,-3%,x
Cc1cc(N2CCN(c3ccccc3)CC2)n2nnnc2n1,-11%,1%,1%,-15%,-8%,3%,18%,-0.5%
Clc1ccc(C2=Nc3cc(Cl)ccc3OC2)cc1,0%,x,-9%,x,x,0%,-16%,x
Cc1ccc(S(=O)(=O)NCCSc2nncn2C)cc1,11%,u,0%,x,5%[46.1 µM],1%,0%,x
C=C(C)CN(CC)C(=O)CC1C(=O)NCCN1C (stereo not drawn),-2%,25%[46.1 µM],0%,x,1%,0%,24%,x
Cc1ccccc1-c1nc2cc(NC(=O)C3CC3)ccc2o1,5%,u,-90%,x,u,-18%,-13%,x
O=C(COc1ccccc1)Nc1c(Cl)ccc2nsnc12,-6%&-18%,1%&0%[46.1 µM],-13%,0%,27%&-1%[46.1 µM],0%,4%,-1.3%
Cc1ccc(/C=N/NC(=O)c2ccc3ccccc3c2)s1,30%,x,-26%,x,x,-11%,-10%,x
CCCCCCN(C(=O)CCCCCN1C(=O)NC(c2ccc(C3CCCCC3)cc2)C(C(=O)OCc2ccccc2)=C1C)C(C(=O)NCCCC)c1ccc(OCC(=O)OC)c(C(=O)OC)c1 (stereo not drawn),x,x,-10%,4%,x,-2%,x,0.9%
CC(=O)c1c(C)n(-c2ccccc2Br)c2ccc(O)cc12,-19%,x,0%,x,x,0%,6%,x
CCOC(=O)CN1NC2(CCCCCCC2)NC1=S,14%,-3%,4%,x,u,3%,-2%,x
CCN1C(=O)N(C)C(N(O)C(=O)NC)C1(C)C (stereo not drawn),-9%,u,0%,-6%,6%,10%,16%,2.4%
NC(=S)N/N=C1\CC(n2nnnc2-c2ccccc2Cl)C2COC1O2 (stereo not drawn),7%,u,x,x,-23%,1%,-24%,x
COc1ccc(NS(=O)(=O)c2cccc(C(=O)NNC(=O)CNC(=O)c3ccco3)c2)cc1,9%,x,-1%,x,x,1%,-2%,x
COc1ccc(/C=N/NC(=O)c2sc(C)nc2C)cc1,14%,-12%[46.1 µM],-3%,x,u,-6%,-26%,x
O=C(/C=C/c1cccc([N+](=O)[O-])c1)NCc1cccnc1,9%,-16%,-2%,2%,9%,-3%,1%,2.0%
O=C(C1CCCN(S(=O)(=O)c2cccs2)C1)N1CCN(C2CCCCC2)CC1 (stereo not drawn),-10%,u,3%,4%,-13%,2%,-20%,6.9%
Cc1cc(C(=O)O)ccc1N/C=C1\CCCC(C)C1=O (stereo not drawn),u,7.9µM*,-7%,-4%,13µM*,1%,-8%,-11%
COc1cccc(CN(C)C(=O)CN2C(=O)NC3(CCCc4ccccc43)C2=O)c1 (stereo not drawn),0%,27%,x,x,3%,1%,3%,x
CCCCCc1c(O)nc(SCCN2CCOCC2)[nH]c1=O,7%,15%[46.1 µM],7%,x,1%,0%,-7%,x
C/C(=N\NC(=O)c1cc(-c2cccnc2)nc2ccccc12)c1ccc(O)cc1O,-14%,7.1µM*,u,8%,6.3µM*,u,7%,-9.1%
CC(=O)c1cccc(NC(=O)N2CCN(S(C)(=O)=O)CC2)c1,0%,-14%,3%,-1%,-29%,-3%,-9%,-5.8%
COC(=O)c1cnn(-c2ccccc2)c1-n1cccc1C=O,-22%,u,x,x,1%,-1%,5%,x
COc1ccc(C2Sc3ccccc3NC3=C2C(=O)c2ccccc23)c(OC)c1OC (stereo not drawn),8%,u,x,-3%,-11%[46.1 µM],x,x,-5.6%
CCOc1ccccc1CNC(=O)c1oc2ccc3c(c2c1C)C(=O)CC(C)(C)O3,12%,u,x,-6%,x,x,x,-4.8%
CCOc1cc2[nH]c(=O)n(CCCCCC(=O)NCc3ccco3)c(=O)c2cc1OCC,0%,-24%,4%,7%,17%,9%,1%,-7.3%
O=C(CSc1cccc(C(F)(F)F)c1)NC(=O)c1ccccc1,-10%,0%[46.1 µM],3%,4%,-5%,-21%,9%,6.8%
COc1ccccc1C(=O)C1CCCN(Cc2cccc3nccnc23)C1 (stereo not drawn),4%,u,0%,x,-18%[46.1 µM],1%,-3%,x
C=C(C)c1cccc(C(C)(C)NC(=O)NCCCn2ccnc2)c1,x,3%,2%,6%,-20%,-23%,13%,6.4%

# The results go on.
SMILES,StopGo reporter,Marburg entry inh,NS1 function inh,Cruzain noTriton,LASV entry inh,SARS PLpro yeast,RE007 growth inh,Cruzain Triton
CSc1ccc(CNCC2CCCO2)cc1 (stereo not drawn),7%,4%[46.1 µM],4%,x,u,4%,2%,x
CN(C)c1ccc([P+](=O)c2ccc(N(C)C)cc2)cc1,44%[activator],2%[46.1 µM],x,x,0%[46.1 µM],5%,-5%,x
c1ccc(-c2cc3ccccc3nc2N2CCCC2)cc1,-22%,-1%,-12%,4%,3%,-2%,-15%,0.4%
CC(C)Oc1ccc(C(=O)OCC(=O)N2CCCc3ccccc32)cc1,-13%,u,x,x,19%,-1%,-21%,x
COCCN1C(=O)N[C@@H](CCc2ccccc2)[C@@H](C(=O)OC)[C@H]1C,-22%,27%&27%&27%[14.2 µM],x,x,u,x,6%,x
O=C(Nc1ccc(C(=O)NC2CCCCC2)cc1)c1cncc(Br)c1,38%[activator],u,3%,x,12%[46.1 µM],0%,14%,x
CC(=O)C(Sc1nc(-c2ccccc2Cl)nc2c1c(=O)n(C)c(=O)n2C)C(=O)N(C)C (stereo not drawn),-9%,x,x,1%,-12%[46.1 µM],x,x,0.9%
O=C(CSc1nnc(-c2cccc(Br)c2)o1)N1CCOCC1,19%,u,1%,x,31%,-2%,10%,x
O=C(COc1ccc2c(c1)CCC2)NCc1ccccc1,18%,6%,-1%,-6%,u,14%,u,-3.6%
CCCc1cc(=O)n2[nH]c(-c3ccccc3)cc2n1,23%,-8%[46.1 µM],-2%,-2%,1%,-12%,17%,1.6%
COc1cc(CCCN2C(=O)C(=O)NC[C@@H]2Cc2ccc(O)cc2)cc(OC)c1OC,-2%,x,-1%,x,x,0%,-1%,x
O=C(OCc1ccc(Br)cc1)c1cccnc1,-6%,18%,-51%,x,24%,-10%,0%,x
CC(=O)Nc1cc(OC(=O)c2ccco2)cc(OC(=O)c2ccco2)c1,0%,-22%,-19%,-1%,-10%,-1%,2%,-9.7%
CC(=O)c1ccc(OC(C)C)c(Cc2c(O)[nH]c(=S)[nH]c2=O)c1,4%,x,2%,x,x,1%,-1%,x
